Source: PubChem
RE007 growth inh: less growth of the S. pombe RE007 Vpr strain; S. pombe RE007 Vpr strain, BacTiter-Glo ATP luminescence, 24 h; control for the full effect not named in the record; Potency, µM (highest dose often 92.2 µM), for inactives: at the top dose activity change, negative = less growth; hit rate 0.21% among 360,000; AID 651644; active = well fitted falling curve with a large enough effect; inconclusive = small, poorly fitted or top-dose-only effect; inactive = no such curve, though single readings can be large or run the other way;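 also: nearly all actives have a fitted effect of over 50% in size; the assay follows cell death caused by Vpr and the record does not say whether a fall means rescue or toxicity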
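Fission yeast strain RE007, carrying one chromosomally integrated HIV-1 vpr copy, was seeded at OD 0.01 in PMG+AL medium with 23 nL pinned compound. After 24 h at 30 °C and 99% humidity, viability was read by BacTiter-Glo luminescence.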
2A StopGo: lowers the luciferase signal of an FMDV 2A StopGo reporter. human cells with a luciferase reporter of 2A StopGo recoding; control for the full effect not named in the record. Potency, µM (series often up to 57.9 µM), for inactives: at the top dose signal change, negative = less light. hit rate 1.2% among 410,000. AID 1159524; active = well fitted falling curve with a large enough effect; inconclusive = small, poorly fitted or top-dose-only effect; inactive = no such curve, though single readings can be large or run the other way; tested in HEK293T cells; also: nearly all actives have a fitted effect of over 45% in size; luciferase light after 4 h
* hit, by the source's call; ? = inconclusive; [ ] = dose if it differs, or a comment. % is scaled to controls: 0 for no effect and ±100 for the full control effect; potency is read from the fitted curve at half-maximal effect. A portion of the library. The share of hits here may be higher or lower than overall.

SMILES	RE007 growth inh	2A StopGo
CCOC(=O)CNC(=O)N(C)[C@H]1C[C@H]2c3[nH]c4ccccc4c3CCN2C(=O)[C@H]1[C@H](C)O	-1%	-6%
CN1CCN(C(=O)C[C@H]2CC[C@H]3[C@@H](COC[C@@H](O)CN3Cc3cccc(F)c3)O2)CC1	-9%	-14%
COC(=O)[C@@]12C[C@@H](CC(=O)NCc3ccccc3)C(=O)N(Cc3cccc4ccccc34)C1=CCC(C)(C)C2	19%	-12%
CC1(C(=O)NS(=O)(=O)c2ccccc2C(F)(F)F)CCN1C(=O)CC1CCCCC1 (stereo not drawn)	11%[18.4 µM]	1%
COc1cc(OC)c(N(C)S(=O)(=O)c2cccc(C(=O)NCc3cccs3)c2)cc1Cl	-4%	-18%
O=C(NC1CCCCC1)c1ccc2ccccc2c1O	?	4%
CCn1c(CC(=O)Nc2ccccc2F)nnc1SCC(=O)NC1=NCCS1	7%	-24%
COc1ccc(CC(=O)Nc2cc(S(=O)(=O)N3CCOCC3)ccc2N2CCOCC2)cc1OC	-11%	-11%
Cc1cccc(-c2cc(N3CCCN(C)CC3)n3nccc3n2)c1	-6%	-24%
O=C1c2ccccc2S(=O)(=O)c2cc(C(=O)N3CCC(N4CCCC4)CC3)ccc21	-3%	10%
Cc1cc(=O)c2c(N(C)C)cccc2[nH]1	13%	-13%
CCCCCCn1c(=O)n2n(c1=O)C[C@]1(OC(=O)NCc3ccco3)CN(S(=O)(=O)c3ccc(C)cc3)C[C@]1(O)C2	0%	?
O=c1[nH][nH]c2c1C(c1cccc(C(F)(F)F)c1)OC(CCc1ccccc1)C2 (stereo not drawn)	-27%	-26%
CCc1nnc(NC(=O)C(NS(=O)(=O)c2ccccc2)C(C)C)s1 (stereo not drawn)	15%	-18%
CCCCCCN1CCN(C2CN(Cc3cn(Cc4cccc(Cl)c4)nn3)S(=O)(=O)C2)CC1 (stereo not drawn)	-5%	-28%
CCC[C@H]1CN(c2ccc(OC)cc2)C(=O)[C@@H]1CC(=O)NC	-17%	2%
O=C(NCc1cccc(Cl)c1)C1Cc2c(-c3ccc(Cl)cc3)ccnc2O1 (stereo not drawn)	4%	-19%
Nc1cc(Cl)ccc1CN1C(=O)c2ccccc2C1=O	-26%	13%
CCOC(=O)CNC(=O)N1Cc2cc(-c3cccc(F)c3)ccc2-n2nncc2C1	14%	4%
Cc1ccc(-c2nc3c(Cl)cc(C(F)(F)F)cn3c2Cc2ccsc2)cc1	-8%	-12%
O=C(NC1CC1)C1=C[C@@H](c2ccc(C(F)(F)F)cc2)C[C@@H](OCCCCO)O1	-19%	18%
CCOC(=O)C1CCCCN1C(=O)c1cc2ccc(OC)cc2c2cc(OC)c(OC)cc12 (stereo not drawn)	-10%	39%[activator]
CCCCN(C)c1c(C)nc2ccc(C(=O)NCCCn3ccnc3)cn12	?	-25%
COc1ccc(CCCNC(=O)C2(C)Cc3c(-c4ccc(NC(C)=O)cc4)ccnc3O2)cc1 (stereo not drawn)	-11%	?
CC1CCCCC12NC(=O)N(CC(=O)N1CCN(S(=O)(=O)c3ccc(Cl)s3)CC1)C2=O (stereo not drawn)	0%	0%
O=C(OCc1cn([C@@H]2C[C@H](c3ccc(Cl)cc3)N(C(=O)c3cccs3)C[C@H]2O)nn1)c1ccccc1	2%	-5%
CCc1nc2c(OCC3CCCCC3)cccn2c1N(C)C(=O)c1ccc(C)cc1	-8%	-28%
CC(=O)c1ccc(-c2cnc3c(NC=O)cc(-c4ccc(N5CCN(C)CC5)cc4)cn23)cc1	?	12%
Cc1cc(C(=O)NNC(C)Cc2ccccc2)no1 (stereo not drawn)	-14%	-1%
CCc1ccc(C(O)c2ncc(-c3cccc(OC)c3)[nH]2)cc1 (stereo not drawn)	-25%	21%
COc1ccc(C#Cc2cccc(-c3nc(C(=O)NCc4ccc(Oc5ccccc5)cc4)cc4c3[C@@H](CCO)N(S(=O)C(C)(C)C)C4)c2)cc1OC (stereo partly drawn)	-11%	-17%
CC[C@H](NC(=O)CC[C@H]1O[C@@H](n2cnc3c(NC(=O)c4ccccc4)ncnc32)[C@H](O)[C@@H]1O)c1ccccc1	-5%	-15%
CCN(CC)C(=O)c1cccc(-c2csc(C(C)(O)c3ccc(OC)cc3)n2)c1 (stereo not drawn)	2%	-29%
COc1ccc(NC(=O)N(C)[C@H]2C[C@H]3c4[nH]c5ccc(-c6ccc(OC)cc6)cc5c4CCN3C[C@H]2[C@H](C)O)cc1	-8%	-22%
CC(C)(C)S(=O)N1Cc2cc(=O)n(Cc3ccccc3)cc2[C@@H]1CCO (stereo partly drawn)	3%	-18%
CCCCN(C(C)=O)c1c(CC)nc2ccc(C(=O)Nc3cccc(OCC(=O)N(C)C)c3)cn12	-12%[18.4 µM]	-13%
O=C(Nc1ccc(F)cc1)C(c1ccccc1OC(F)(F)F)N1CCN(c2cccc(C(F)(F)F)n2)CC1 (stereo not drawn)	2%	-16%
C[C@@H]1COc2cccc(N3CCC[C@H]3CO)c2S(=O)(=O)N1	-18%	-13%
O=C1NC(C2CC3C=CC2C3)Nc2ccccc21 (stereo not drawn)	-11%	?
Cc1ccccc1S(=O)(=O)NC(=O)C1(C)CCN1C(=O)CC1CCCC1 (stereo not drawn)	21%	-13%
C=C(C)C(=O)Nc1ccc2nn(-c3ccccc3O)nc2c1	-18%	36%[activator]
O=C(c1ccoc1)N1CCN(c2cc(-c3ccccc3)nc3cc(-c4ccccc4)nn23)CC1	-24%	35µM*
Cc1[nH]ncc1Nc1c(C(C)C)cccc1C(C)C	-8%	8%
CN1CCCC2c3ccccc3CCC21 (stereo not drawn)	-7%	0%
O=C(NCCNc1ccc([N+](=O)[O-])cc1)c1ccccc1Cl	-10%	-23%
O=C(COC(=O)Cc1ccc(Cl)cc1Cl)NCc1ccco1	-11%	-15%
COc1cc2oc3ccc(C#Cc4ccc(N)cc4)cc3c(=O)c2cc1OC	-9%	7%
Cc1cccc(CN2[C@H](COC(=O)Nc3ccccc3)C=CS2(=O)=O)c1	0%	-11%
CCCCCCN1C[C@@H](O)[C@H](n2cc(COC(=O)c3ccccc3)nn2)C[C@@H]1c1ccc(OC)cc1	2%	-22%
Cc1cc(C(O)c2ncc(-c3ccc(Oc4ccccc4)cc3)[nH]2)ccc1F (stereo not drawn)	26%	-1%

Next part:
SMILES	RE007 growth inh	2A StopGo
O=c1ccc(-c2ccccc2)nn1Cc1ccccc1	7%	0%
CC(=O)Nc1cc(-c2ccoc2)cn2c(-c3ccccc3)cnc12	13%[18.4 µM]	-10%
COc1ccc(-c2csc(NC(C)c3nc4cc(Cl)c(Cl)cc4n3CCCO)n2)cc1 (stereo not drawn)	-1%	-7%
O=S(=O)(c1ccccc1)N1CCN(CCOc2ccc(F)cc2)CC1	-1%	?
Cc1ccc(S(=O)(=O)N2CCN(C(=O)COC(=O)c3ncc(Cl)c(Cl)c3Cl)CC2)c(C)c1	-11%	-13%
CC1(C(=O)Nc2ccc3nc[nH]c3c2)CCN1C(=O)C1(c2ccccc2)CC1 (stereo not drawn)	-12%[18.4 µM]	-13%
COc1ccc(CN2Cc3cnnn3-c3ccccc3C2c2ccccc2)cc1 (stereo not drawn)	-7%	0%
COC(=O)CCCC[C@@H]1O[C@H](CCc2ccccc2)Cc2[nH][nH]c(=O)c21	7%	-25%
COc1ccc(CCNC(=O)CSc2ccc3nnc(CCNC(=O)c4ccc(C)cc4)n3n2)cc1OC	-8%	26%
Cc1cccc(C)c1NC(=O)C1c2ccccc2OCC(=O)N1C1CC1 (stereo not drawn)	6%	-14%
COC(=O)c1sc(NC(=O)OCc2ccccc2)nc1CCNC(=O)OC(C)(C)C	0%	-8%
CCN(CC(=O)Nc1ccc(NC(C)=O)cc1)C(=O)CN1C(=O)NC(C)(c2ccc3ccccc3c2)C1=O (stereo not drawn)	4%	-24%
CN1Cc2ccccc2-n2nncc2C1	4%	0%
O=NN(Cc1cccnc1)C(=O)NC1CCCCC1	-18%	-23%
O=S1(=O)C=C[C@H](COCc2ccccc2)N1	2%	-24%
COc1ccc(NC(=O)C2Cc3c(-c4cccc(C(N)=O)c4)ccnc3O2)cn1 (stereo not drawn)	4%[18.4 µM]	-11%
COCCNc1nc(NCCN2CCNC2=O)c2sc(-c3ccccc3)cc2n1	-10%	-20%
C[C@@H]1COc2cccc(N3CCSCC3)c2S(=O)(=O)N1	-5%	-7%
O=C(Cc1ccc(Cl)cc1)NCC(=O)N1CCC2(CC1)NCCc1[nH]cnc12	2%	-24%
COc1ccc(C(=O)N2CCOC2CNC(=O)C(=O)NCc2ccccn2)cc1 (stereo not drawn)	-19%	-29%
Cc1cc2nc(-c3ccc(F)cc3)c(Cc3ccsc3)n2c(C)c1Br	-19%	-6%
CO[C@@H]1[C@@H](OC(N)=O)[C@@H](O)C(Oc2ccc3c(O)c(NC(=O)c4ccc(O)c(CC=C(C)C)c4)c(=O)oc3c2C)OC1(C)C (stereo partly drawn)	-7%	-22%
Cc1ccc(S(=O)(=O)N2C[C@H]3C(=O)C[C@@H](c4ccccc4)N(S(=O)(=O)c4ccc(C)cc4)[C@H]3C[C@H]2c2cccc(C)c2)cc1	-12%	-7%
CC(C)C[C@H](NP(=O)(O)O[C@@H]1O[C@@H](C)[C@H](O)[C@@H](O)[C@H]1O)C(=O)N[C@@H](Cc1c[nH]c2ccccc12)C(=O)O	10%[18.4 µM]	-15%
COC(=O)C[C@H]1C[C@@H]2c3cc(NC(=O)Nc4ccc(F)cc4)ccc3O[C@@H]2[C@@H](CO)O1	11%	-9%
Cc1ccc(S(=O)(=O)N2C[C@@H](C)[C@]3(C2)[C@H](O)[C@H](OC(=O)Nc2cccs2)C[C@H]2C(=O)N(c4ccccc4)C(=O)[C@H]23)cc1	-1%	?
Cc1csc(NC(C)c2nc3cc(Cl)c(N4CCCCC4)cc3n2CCOCCO)n1 (stereo not drawn)	-8%	-22%
Cc1ccc(S(=O)(=O)Nc2ccc3c(c2)C(=O)N([C@@H](C)CO)C[C@@H](C)[C@@H](CN(C)C(=O)NC2CCCCC2)OCCCC[C@H](C)O3)cc1	0%	1%
O=C(NCCN1CCC(n2c(=O)[nH]c3ccccc32)CC1)c1ccccc1C(F)(F)F	0%	?
CC1(C)N=C(N)N=C(N)N1c1cc(Cl)ccc1Cl	15%	0%
CC(NCC(=O)Nc1ccccc1C(=O)NC1CC1)c1ccc(Cl)cc1 (stereo not drawn)	-3%	20µM*
O=C1c2ccccc2C(=O)N1C1C=CC=CC=C1	-14%	?
Fc1ccc(-c2ccc3c(c2)C2CC3CCN2Cc2ccc3c(c2)OCO3)cc1 (stereo not drawn)	-28%	0%
O=C(O)c1c2c(nc3ccc(S(=O)(=O)N4CCC(C(=O)NCc5ccccc5)CC4)cc13)CCCC2	-14%	-9%
COC(=O)c1ccc2nc(-c3cccc(Cl)c3)c(Cc3ccccc3OC)n2c1	-8%	17%
Cc1cc(Br)cn2c(Cc3ccccc3)c(-c3cccc(Cl)c3)nc12	6%	-14%
COC(=O)[C@]12CCCCC=C1N(CCC1=CCCCC1)C(=O)[C@H](CC(=O)NCCCCc1ccccc1)C2	-5%	-19%
O=C(c1cccc(Cl)c1)N1CCC2CC1c1cc(-c3ccccc3)ccc12 (stereo not drawn)	-23%	-5%
COc1cc(Cn2c3ccc(NC(=O)CCc4ccccc4)cc3c(=O)n2C)ccc1F	2%	-23%
COc1cc(OCc2ccccc2)c(CC(=O)O)c([N+](=O)[O-])c1	-11%	-3%
CC/C(=N\NC(=O)c1cc(C)oc1C)c1ccc(OC(F)F)cc1	-1%	-24%
NC(=O)c1ncn([C@@H]2O[C@H](CNS(=O)(=O)c3cc4ccccc4s3)[C@@H](O)[C@H]2O)n1	17%	-18%
C=CCC1(CC=C)CCCN1C(=O)C1CCC(=O)N(Cc2ccc(Cl)cc2)C1 (stereo not drawn)	6%	46%[activator]
